Screening data (PubChem)
Kir21 inh: blocks the mouse Kir2.1 inward-rectifier potassium channel. P35561. HEK293-Kir2.1, FluxOR thallium flux fluorescence; stronger effect = lower value. B-score at 10 µM. hit rate 0.85% among 310,000;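 active means fluorescence ratio B-score at or below minus 3 SD of library scores, with starting-brightness B-score within 2 SD, cut at about -4.2 in these data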;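 further: channel flux triggered by added potassium and thallium sulfate stimulus; B-score of peak minus minimum fluorescence over baseline after thallium stimulus; more negative B-score means stronger Kir2.1 block with less thallium influx; some compounds called inactive have numbers as strong as hits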
Target sequence (P35561 whole entry, looked up): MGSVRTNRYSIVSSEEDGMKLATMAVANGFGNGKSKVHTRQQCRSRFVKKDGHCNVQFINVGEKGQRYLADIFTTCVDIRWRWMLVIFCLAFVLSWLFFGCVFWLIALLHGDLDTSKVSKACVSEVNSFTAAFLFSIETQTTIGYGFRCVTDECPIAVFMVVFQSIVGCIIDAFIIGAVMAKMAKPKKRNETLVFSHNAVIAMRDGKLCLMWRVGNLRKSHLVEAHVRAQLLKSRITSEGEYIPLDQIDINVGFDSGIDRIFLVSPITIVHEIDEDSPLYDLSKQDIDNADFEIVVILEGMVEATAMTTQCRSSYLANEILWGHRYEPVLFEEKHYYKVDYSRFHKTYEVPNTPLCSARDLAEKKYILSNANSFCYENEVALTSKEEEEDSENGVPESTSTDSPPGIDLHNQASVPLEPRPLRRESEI
* marks the source's active call; other numbers are inactive results. A portion of the library, and most or all hits are left out here.

SMILES	Kir21 inh
COc1cc(C(O)P(=O)(OCC(C)C)c2ccc(N(C)C)cc2)cc(OC)c1OC (stereo unspecified)	2.9
C/C(=N/NC(=O)c1sc(NS(=O)(=O)c2ccccc2)nc1C)c1ccc(F)cc1	-0.73
Cc1ccc(NC(=O)C[n+]2ccccc2)cc1[N+](=O)[O-]	0.05
Cc1ccc(S(=O)(=O)c2nc(S(=O)(=O)c3ccccc3)sc2N2CCN(CCO)CC2)cc1	-1.4
CCCNC(=O)Nc1cccc(NC(C)=O)c1	-0.67
N#Cc1cnn2c1nc(N1CCCCC1)c1ccccc12	0.96
NS(=O)(=O)c1ccc(CCNC(=O)C(=O)NCC2OCCN2C(=O)c2ccc3c(c2)OCO3)cc1 (stereo unspecified)	0.65
CCOc1ccc(N/C(SCc2cccc([N+](=O)[O-])c2)=C(/C#N)C(N)=O)cc1	-0.19
CC(OC(=O)c1ccccc1O)C(=O)Nc1ccc(Cl)cn1 (stereo unspecified)	-0.49
O=C(CN1CCc2ccccc21)NCc1ccc2c(c1)OCO2	-3.6
O=C(Nc1ccc(S(=O)(=O)N2CCOCC2)cc1)c1c(F)cccc1F	-0.45
O=C(COc1ccccc1Cl)N1CCN(c2ccccn2)CC1	-0.56
C/C(=N/OC(=O)c1c(F)cccc1F)c1nccs1	-2.5
CCCCc1nc2c(C)c(N)cnc2n1Cc1cccc([N+](=O)[O-])c1	0.01
Cc1cc(CNC(=O)C2CCC(=O)N(Cc3cccc(C(F)(F)F)c3)C2)no1 (stereo unspecified)	1.4
O=C(NCC(c1ccco1)N1CCc2ccccc21)c1c(F)cccc1F (stereo unspecified)	1.6
O=C(/C=C/c1ccc2c(c1)OCCO2)c1ccc(O)cc1	2.2
COc1ccc(S(=O)(=O)N(CCc2ccccc2)CC(=O)O)cc1	0.3
COc1ccc(N2CCN(CCNC(=O)CCC(=O)NNc3nc4ccccc4c4nc(C)nn34)CC2)cc1	-0.01
Cc1nn(Cc2ccc(Cl)cc2)c(C)c1NC(=O)C1CC=CCC1C(=O)O (stereo unspecified)	-0.43
O=C(CC12CC3CC(CC(C3)C1)C2)N1CCOCC1	-0.24
CSCCC(NC(=O)C12CC3CC(CC(C3)C1)C2)C(=O)OCC(=O)c1ccccc1 (stereo unspecified)	-0.55
Cn1c(N)c(S(=O)(=O)NCc2ccccc2)c(=O)n(C)c1=O	1.1
COc1ccccc1NC(=O)C/C(C)=N/NC(=O)c1ccccn1	-1.7
CC1(C)Cc2nc(Cl)c(C#N)cc2CO1	-0.21
CNC(=O)COC(=O)c1cc(-c2ccccc2)nn1-c1ccccc1	0.02
CC(=O)OCC1OC(Nc2cccc(C)c2)C(OC(C)=O)C(OC(C)=O)C1OC(C)=O (stereo unspecified)	1.1
Cc1cccc(N(CC(=O)N2CCN(c3ccc(F)cc3)CC2)S(C)(=O)=O)c1C	-0.05
N#Cc1c(SCC(=O)Nc2ccccc2)nsc1SCC(=O)Nc1ccccc1	-0.6
O=C(CSc1n[nH]c(-c2ccncc2)n1)NCCc1ccccc1	0.12
C/C(Cn1nnc2ccccc21)=N/OC(=O)c1c(F)cccc1F	0.72
N#C/C(=C\c1cn(Cc2ccc(C#N)cc2)c2ccccc12)C(=O)NCc1cccs1	-0.82
c1ccc(Oc2cc(-c3ccccc3)ncn2)cc1	0.84
OCC1(Cc2ccccc2)CCN(C2CCN(c3ccccc3F)CC2)CC1	0.05
CC(=O)N1c2ccc(S(=O)(=O)N3CCC(C(=O)NC4CCCC(C)C4C)CC3)cc2CC1C (stereo unspecified)	-0.82
CCCCC(=O)Nc1cc(OCC)c(NC(=S)NC)cc1OCC	-0.12
COc1cc(C(=O)Nc2ccccc2NC(=O)c2cc(OC)c(OC)c(OC)c2)cc(OC)c1OC	-0.48
Cc1ccc2c(c1)C(c1ccc(F)cc1)N(C(=O)c1ccc(S(=O)(=O)N(C)C)cc1)CC(=O)N2 (stereo unspecified)	-1.4
CCn1c(SCC(=O)NCc2ccccc2)nnc1-c1cccnc1	0.86
Cc1cc(-c2ccccc2)n2ncc(C#N)c2n1	1
CCN(CC1CCCN(CCc2cccc(OC)c2)C1)C(=O)C=C(C)C (stereo unspecified)	-0.44
Cc1ccc(S(=O)(=O)N2CCOCC2)cc1NC(=O)CNCc1cccnc1	1.1
Cn1c(/C=C/c2ccccc2[N+](=O)[O-])nc2ccccc2c1=O	0.59
CC(C)(C)NC(=O)CSc1n[nH]c(=O)n1-c1ccccc1	-0.05
CC(C)C(=O)OCC(=O)NCc1ccccc1Cl	0.98
CCCCCC(C(=O)O)C(C)CC(=O)NC1CCCCC1 (stereo unspecified)	-0.22
CCOc1ccc2nc(SC3CC(=O)N(c4ccccc4)C3=O)sc2c1 (stereo unspecified)	0.36
O=C(c1cccc(Oc2c(Cl)cccc2[N+](=O)[O-])c1)N1CCOCC1	-2.7
CC1=NC(=O)C(N=Nc2ccccc2C(=O)O)N1c1ccccc1 (stereo unspecified)	-0.23
CCn1nc(C(=O)NCC(c2cccs2)N2CCOCC2)c2ccccc2c1=O (stereo unspecified)	0.01
CCOc1ccc(C(=O)Nc2cccc(SC)c2)cc1	0.17
O=C(NC1CCS(=O)(=O)C1)c1sc2ccccc2c1Cl (stereo unspecified)	0.69
NS(=O)(=O)c1ccc(NC(=O)c2ccc(COc3ccccc3)o2)cc1	2.3
O=C(CN(CCc1ccccc1)C(=O)c1csnn1)NCc1ccc(F)cc1	1.9
O=S(=O)(CCN1CCN(c2ccccn2)CC1)c1ccc(Cl)cc1Cl	-1.6
FC(F)(F)c1cccc(NC(=S)NCC(c2cccnc2)N2CCOCC2)c1 (stereo unspecified)	0.64
O=C(Nc1ccc(C(=O)O)cc1)/C(=C\c1ccco1)NC(=O)c1ccc(Br)o1	-1.5
COc1ccccc1C(=O)N1CCN(S(=O)(=O)Cc2ccccc2)CC1	-1.9
O=C(N/N=C/c1ccco1)c1cc(-c2cccc3ccccc23)n[nH]1	1.8
CC(=O)NNc1ccc(C(F)(F)F)cc1[N+](=O)[O-]	-0.51

Entries shown so far that have a CF3 group:
SMILES	Kir21 inh
Cc1cc(CNC(=O)C2CCC(=O)N(Cc3cccc(C(F)(F)F)c3)C2)no1 (stereo unspecified)	1.4
FC(F)(F)c1cccc(NC(=S)NCC(c2cccnc2)N2CCOCC2)c1 (stereo unspecified)	0.64
CC(=O)NNc1ccc(C(F)(F)F)cc1[N+](=O)[O-]	-0.51

(cont.)
SMILES	Kir21 inh
CCc1ccc(NCCC(=O)c2ccc(Cl)cc2)cc1	0.05
CCN(CC)S(=O)(=O)c1ccc(C(=O)Nc2ccc3c(c2)OCO3)cc1	0.3
CCNC(=O)CCn1nc(-c2ccc(C)cc2)c2ccccc2c1=O	-3.8
CC12CC3(C)CC(C)(C1)CC(C(=O)NC(=S)N1CCCC1)(C2)C3	-1
COc1ccc(OC)c(/C=N/NC(=O)c2cc3c(OC)cccc3[nH]2)c1	-0.58
COC(=O)CC1COc2ccccc2N1C(=O)c1cccc(Cl)c1 (stereo unspecified)	-1.3
S=C(Nc1ccccc1)Nc1ccc(Cl)cn1	1.4
Cc1ccccc1NS(=O)(=O)c1cc2c(cc1C)N(C)CCO2	-1.9
O=S1(=O)N=C(N(CCO)/N=C/c2ccccc2F)c2ccccc21	-0.28
CCCCNS(=O)(=O)c1ccc(NC(=O)C(Sc2ccccc2)c2ccccc2)cc1 (stereo unspecified)	0.12
Nc1ccc(SCCN2C(=O)c3ccccc3C2=O)cc1	-0.38
CCc1cc2c3c(c(=O)oc2cc1OC(C)C(=O)O)CCCC3 (stereo unspecified)	0.76
Cc1nnc(N2CCCC(C(=O)NCc3ccccc3F)C2)c2nn(-c3ccccc3)c(C)c12 (stereo unspecified)	-0.63
Cc1nc([N+](=O)[O-])cn1Cc1cccc2ccccc12	-1.6
O=C(CN(C(=O)c1csnn1)c1ccc(F)c(Cl)c1)NC1CCCCC1	0.06
CCOc1ccc(C(=O)NCC(=O)OCc2csc(-c3ccccc3)n2)cc1	-1.3
CN1CCN(C(=O)c2ccc(CS(=O)Cc3ccc(Cl)cc3)o2)CC1 (stereo unspecified)	5
O=C(NNC(=O)c1cc2ccccc2cc1O)Nc1ccc(F)cc1F	-0.9
C=CCn1c(NC(=O)c2ccc(C)cc2)nc2ccccc21	0.05
Cn1c(=O)c2c([nH]c(OCc3ccc(Cl)cc3Cl)[n+]2Cc2ccc(F)cc2)n(C)c1=O	-0.62
Cc1c(C(=O)N/N=C/c2ccncc2)no[n+]1[O-]	-0.18
CCC(C)[C@H](NC(=O)N1CC(=O)Nc2ccccc21)C(=O)N[C@H](Cc1c[nH]c2ccccc12)C(=O)O (stereo partly specified)	0.38
O=C(O)CSCNC(=O)C12CC3CC(CC(C3)C1)C2	0.38
CCCCCC(=O)N/N=C/c1ccc(N(C)C)cc1	1.6
CCN1CCN(C(=S)c2ccc(Br)cc2)CC1	-0.86
CCCC(N)CCCCCC(=O)O (stereo unspecified)	0.08
Oc1c(Cl)cc(Cl)cc1C1Nc2ccccc2-n2cccc21 (stereo unspecified)	0.34
CCOC(=O)C(=O)CC(=O)c1ccc2c(c1)OCCO2	1.2
COc1ccc(C2CC(c3ccc(F)cc3)Nc3nc(N)nn32)cc1 (stereo unspecified)	-0.94
Cn1c(=O)c2c(nc(NCc3ccccc3)n2CC(=O)NCc2ccccc2)n(C)c1=O	0.19
CCCNC(=O)c1ccccc1NS(=O)(=O)c1ccc2c(c1)OCCO2	-0.33
O=c1ccnc(NCCc2ccccc2)[nH]1	-0.53
COc1ccc(/C=N/NC(=O)Nc2cccc3nsnc23)cc1	0.94
Cc1cc(C(=O)COC(=O)C2COc3ccccc3O2)c(C)n1CC1CCCO1 (stereo unspecified)	0.97
COc1ccc(CNc2ncnc(N)n2)cc1	0
Cc1ccc(OCC(=O)NNC(=O)c2ccc(NC(=O)C3CC3)cc2)c(C)c1	-1.5
Cn1c(NC(=O)/C=C/c2ccco2)cc(=O)n(C)c1=O	1.1
COc1ccc(CCNC2=C(Cl)C(=O)N(CCc3ccccc3)C2=O)cc1OC	-0.01
Cc1c(C(C)(C)O)[nH]c2cc(C(F)(F)F)ccc12	1.2
Cc1cccc(S(=O)(=O)C(C#N)c2nc3ccccc3nc2N2CCCC2)c1 (stereo unspecified)	-0.66
CCOC(=O)c1sc2nc(C)nc(SCC(=O)NC3CCS(=O)(=O)C3)c2c1C (stereo unspecified)	-0.05
Cn1c(=O)c2ncn(CC(=O)NCCOCc3ccccc3Cl)c2n(C)c1=O	-0.14
O=C(NCc1ccc2c(c1)OCO2)c1cc(-n2cnnc2)ccc1Cl	-0.5
CN(Cc1cccnc1)C(=O)Cc1ccc(NS(=O)(=O)c2cccc(C(F)(F)F)c2)cc1	-0.23
O=C1CC(N2CCC(c3nc4ccccc4o3)CC2)C(=O)N1Cc1cccs1 (stereo unspecified)	1.1

Filtered by structure, the entries above with bromine.
SMILES	Kir21 inh
O=C(Nc1ccc(C(=O)O)cc1)/C(=C\c1ccco1)NC(=O)c1ccc(Br)o1	-1.5
CCN1CCN(C(=S)c2ccc(Br)cc2)CC1	-0.86

Next part.
SMILES	Kir21 inh
CC(=O)c1cc2c(cc1NS(=O)(=O)c1ccc(C)cc1)OCCO2	0.04
CC1CC(C)CN(C(=O)CCNC(=O)Cn2cnc3ccccc3c2=O)C1 (stereo unspecified)	-0.72
O=C1Nc2ccc(Br)cc2C1Cc1ccccc1F (stereo unspecified)	-0.87
Cc1nc(SCc2ccccc2)c(C(F)(F)F)c(=O)[nH]1	1.1
CC(=O)Nc1nonc1-c1nc2ccccc2n1N(C(C)=O)C(C)=O	0.4
O=[N+]([O-])c1ccc(N2CCN(S(=O)(=O)c3ccc(Cl)cc3)CC2)cc1NCc1cccnc1	0.68
O=C(CNC(=O)c1ccco1)OCN1C(=O)c2ccccc2C1=O	-2.1
Cc1cc(C(=O)N/N=C/c2ccco2)c2ccccc2n1	0.25
COc1ccc([C@H]2CC(=O)c3c(O)cc(O)cc3O2)cc1O	-0.73
OCC1CCN(Cc2nc(Cc3ccccc3Cl)no2)CC1	-0.12
COCCN(C(=O)CSc1nnc(-c2cccc(C)c2)n1C)c1c(N)n(Cc2ccccc2)c(=O)[nH]c1=O	-1.4
CC1(C)N=C(c2ccccc2)C(=O)N1	2.7
O=C(NCc1ccccn1)c1cc2ccccc2oc1=O	-0.98
COC(=O)C(CC(=O)c1ccc(C)cc1)n1cccn1 (stereo unspecified)	-0.73
COc1cccc(Cn2c(-c3cccs3)noc2=O)c1	-0.61
CCC(=O)NC1=C(C#N)C2(CCCC2)Cc2ccccc21	-4.1
CCc1c(O)nc(SCC(=O)Nc2ccccc2OC)n(-c2ccccc2C)c1=O	0.4
O=C(CSc1nnc(-c2cnccn2)n1Cc1ccco1)c1ccccc1	-0.7
CCc1ccc(-c2cc3c(=O)n(CC(=O)NCCCN4CCN(CC)CC4)nc(C)n3n2)cc1	-1.9
Cc1nn(-c2ccccc2)c2c1C(O)CC(C)(C)C2 (stereo unspecified)	0.7
Cc1c(C(=O)OCC(=O)N2CCCC(C)C2)oc2ccccc12 (stereo unspecified)	1.8
CCOC(=O)Cn1nc(NC(=O)c2cc(OC)cc(OC)c2)cc1C	-0.29
CCn1nc(C)c(Br)c1-c1nc(-c2cccc(C)c2)no1	-1.8
Cc1cc(OCC(=O)N2CCN(c3ccccc3)CC2)c2c(C)cc(=O)oc2c1	0.03
Cc1ccc(CN2[C@@H]3c4ccccc4C[C@@H]3OCCS2(=O)=O)cc1	-2.5
CCc1nnc2sc(-c3ccc(NC(=O)c4ccc5c(c4)OCCO5)cc3)nn12	-1.3
COc1ccc(CCNC(=O)Cn2cnc3c(nnn3Cc3ccccc3F)c2=O)cc1OC	-0.72

Molecules shown so far that have a thiophene ring, fused or not:
SMILES	Kir21 inh
N#C/C(=C\c1cn(Cc2ccc(C#N)cc2)c2ccccc12)C(=O)NCc1cccs1	-0.82
CCn1nc(C(=O)NCC(c2cccs2)N2CCOCC2)c2ccccc2c1=O (stereo unspecified)	0.01
O=C(NC1CCS(=O)(=O)C1)c1sc2ccccc2c1Cl (stereo unspecified)	0.69
CCOC(=O)c1sc2nc(C)nc(SCC(=O)NC3CCS(=O)(=O)C3)c2c1C (stereo unspecified)	-0.05
O=C1CC(N2CCC(c3nc4ccccc4o3)CC2)C(=O)N1Cc1cccs1 (stereo unspecified)	1.1
COc1cccc(Cn2c(-c3cccs3)noc2=O)c1	-0.61
